Screens deposited in PubChem by ICCB-Longwood Screening Facility, Harvard Medical School.
MenB inh – M. tuberculosis MenB inhibitors, primary screen, biochemical, absorbance; 1,4-dihydroxy-2-naphthoyl-CoA synthase (Mycobacterium tuberculosis (strain ATCC 25618 / …; MenB enzyme assay, absorbance read-out; some hits fall short of the stated cut; inhibition, %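 (about 12 µg/mL by stock and volumes)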; actives 0.43% (n = 100,000); AID 540299, 2011;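 active = mean of two replicates above 30%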;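 note: 0% = no compound and 100% = wells with inactive enzyme; the first replicate is given; strong numbers were not always called active; inactives centre near -10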
PV pol inh – poliovirus RdRp elongation inhibitors, primary screen, biochemical, fluorescence polarization, total intensity; poliovirus polymerase elongation; hits give low values; actives 0.66% (n = 150,000); AID 588519, 2011; % elongation, % (compound at 16.7 µg/mL); in the data active = % elongation below about 90%; note: some results filed as inactive read as strong as hits
Target sequence (P03300 1749-2209 limits assumed): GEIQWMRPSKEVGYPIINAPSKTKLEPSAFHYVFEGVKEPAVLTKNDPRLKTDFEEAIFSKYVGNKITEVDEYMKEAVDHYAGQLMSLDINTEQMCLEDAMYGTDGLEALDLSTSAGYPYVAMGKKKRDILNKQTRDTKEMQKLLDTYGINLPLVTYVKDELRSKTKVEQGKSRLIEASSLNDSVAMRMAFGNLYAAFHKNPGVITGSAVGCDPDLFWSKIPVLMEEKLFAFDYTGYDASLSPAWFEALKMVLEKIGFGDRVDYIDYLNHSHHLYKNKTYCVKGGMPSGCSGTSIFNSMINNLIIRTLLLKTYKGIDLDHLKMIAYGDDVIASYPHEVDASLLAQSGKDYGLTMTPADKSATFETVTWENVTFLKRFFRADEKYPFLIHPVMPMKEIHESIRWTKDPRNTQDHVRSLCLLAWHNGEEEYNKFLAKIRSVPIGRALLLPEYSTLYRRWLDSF
Mtb MbtI inh – MbtI salicylate synthase inhibitors, primary screen, biochemical, fluorescence intensity. P9WFX0. purified MbtI enzyme, fluorescence intensity read-out. inhibition, %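 (about 17 µg/mL by stock and volumes)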. actives 0.89% (n = 100,000);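 active = above 50% in both replicates, above 80% if mildly self-fluorescent; inactive = the rest, strongly fluorescent compounds included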;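 note: 0% = mean of negative and 100% = mean of positive controls; one replicate is shown; some compounds called inactive have numbers as strong as hits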
Target sequence (P9WFX0 whole entry, looked up): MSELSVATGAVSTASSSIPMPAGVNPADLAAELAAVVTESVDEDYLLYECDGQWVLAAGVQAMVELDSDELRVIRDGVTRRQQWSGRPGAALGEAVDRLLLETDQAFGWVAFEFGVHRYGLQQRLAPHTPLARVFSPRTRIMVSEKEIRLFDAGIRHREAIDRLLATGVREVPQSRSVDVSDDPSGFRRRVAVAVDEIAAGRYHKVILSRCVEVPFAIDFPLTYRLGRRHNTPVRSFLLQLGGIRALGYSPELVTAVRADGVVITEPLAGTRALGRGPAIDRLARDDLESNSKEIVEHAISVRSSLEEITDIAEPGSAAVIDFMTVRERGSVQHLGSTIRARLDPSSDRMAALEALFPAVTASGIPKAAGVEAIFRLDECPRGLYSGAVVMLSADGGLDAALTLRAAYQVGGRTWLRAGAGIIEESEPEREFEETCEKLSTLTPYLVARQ
PV pol inh intensity – further read-out of PV pol inh, marked with its call; % elongation; measured here: total intensity read-out; formula for this scale not given here;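 total fluorescence in place of polarization; lower means less elongation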
Active calls of the source: *; . = no result given; & = joins results of further samples.

canonical_smiles,PV pol inh,PV pol inh intensity,MenB inh,Mtb MbtI inh
CCOC(=O)c1ccc2c(c1)nc(SCC(=O)NC(C)C(C)C)n2CC (configuration not stated),103,108,-14,13
O=c1nc2sc3ccccc3n2c(=O)n1-c1ccc(Cl)cc1,102,102,-10,1
COC(=O)[C@@]1(O)CC2OC1(C)n1c3ccccc3c3c4c(c5c6ccccc6n2c5c31)C(=O)NC4 (some centres not stated),103&97,101&101,4,-69
CCOC(=O)Nc1cccc(O)c1,101,103,.,4
CCOC(=O)C1CCCN(C2=NC(=O)/C(=C/c3ccc(OC)c(OC)c3)S2)C1 (configuration not stated),101,101,-12,-7
CN(C(=O)c1ccc(COc2ccccc2Cl)o1)c1ccccc1,103,112,-14,.
CN1CCC(N(C)Cn2ncn(-c3ccccc3)c2=S)CC1,101,104,4,11
Cc1ccccc1/C=C(\C#N)C(=O)OC(C)(C)C,103,103,13,-2
CCOC(=O)N1CCN(Cn2nnc3ccccc3c2=O)CC1,106,108,-1,33
CCOC(=O)Cn1cnc2sc(C)c(C)c2c1=O,104,106,-32,-1
O=C(Nc1ccc(Cl)cc1)NC(Cc1ccccc1)C(=O)O (configuration not stated),99,102,6,-5
Cc1nc(NS(=O)(=O)c2ccccc2)sc1NC(=O)Nn1cnnc1,101,99,1,5
O=C(NCC(c1cccnc1)N1CCN(c2ccccc2)CC1)c1ccccc1 (configuration not stated),99,103,7,-13
C/C(N)=C(/C#N)C(=O)CSc1nc2nc(C)cc(C)n2n1,102,110,-3,1
COC(=O)C1=C(NC(=O)c2cccc(Cl)c2)CCS1,102,93,-14,11
Nc1nccc(-c2nn(-c3ccc(Cl)cc3)ccc2=O)n1,103,110,-1,2
Cc1ccc(CN2COc3c(Cl)cc4c(C)c(C)c(=O)oc4c3C2)cc1,104,92,-23,-68
CN(C)C(=S)SCC#N,102,108,-20,1
Cc1nnc(SCC(=O)N2CCN(c3cccc(Cl)c3)CC2)n1C1CC1,106,109,-23,9
CCCN1c2ccccc2NC1NC(=O)CCN(c1ccc(OC)cc1)S(=O)(=O)c1ccc(C)cc1 (configuration not stated),104,111,-45,4
N#CC1(N2CCCCC2)CCCCC1,100,102,.,-13
COc1cccc(-c2cc(C(=O)NC3CCCC3)no2)c1,101,107,-22,-3
Cc1nnc(SCc2cn3cc(Br)ccc3n2)n1C,100,95,.,-2
CNC(=S)N/N=C/c1c(C(=O)OC)cnn1-c1ccc(F)cc1F,103,104,-25,10
C=C(C)Cn1c(=S)[nH]c2ccccc2c1=O,104,111,-10,.
COc1ccc(Cl)cc1N/C=C(/C#N)c1nc2ccccc2n1C,101,104,-33,5
N#CCn1c(CSc2nnc(COc3ccccc3Cl)n2C2CC2)nc2ccccc2c1=O,139,203,2,-14
O=C(CSc1nnc(-c2ccco2)o1)N1CCCc2ccccc21,99,97,-21,-11
COc1ccc2[nH]c3c(=O)n(Cc4ccc(C(=O)NCCc5ccc(C)cc5)cc4)c(=S)[nH]c3c2c1,100,97,-36,-19
O=C(NCCc1ccccc1)c1ccc2c(c1)NC(=O)C1CCCN21 (configuration not stated),104,112,-18,1
Cn1c2ccccc2c2cnn(CC(=O)NCCN3CCCCCC3)c(=O)c21,102,100,-24,17
CCC(=O)N1CCc2cc(S(=O)(=O)NCC(OC)OC)ccc21,102,104,-11,1
CCOc1ccccc1C(=O)NC1CCNCC1,102,100,-40,-9
CC(O)CNc1cc(=O)oc2ccccc12 (configuration not stated),103,101,-2,18
Cc1c(C)n(C(=O)CSc2nc3ccccc3s2)c2ccccc12,105,108,-18,-3
Cc1cc(/C=N/N=C2\C(=O)Nc3ccccc32)c(C)n1CC(C)C,103,98,-4,-21
O=C(O)c1ccc(O)c(Br)c1,103,104,7,0
COc1ccc(NC(=S)NC2CCCCC2)cn1,102,105,12,8
CCn1cc(-c2cc(C(=O)O)no2)cn1,103,99,-43,1
COC(=O)c1cc(C)sc1NC(=S)Nc1cnn(C)c1C(N)=O,99,102,-3,15
O=C(O)CCSc1nc(-c2ccccc2)cc(=O)[nH]1,101,98,-45,2
Cc1ccc(C2(c3ccc(C)o3)CCCCC2)o1,100,103,4,21
CCn1c(SCC(=O)N2CCCCC2)nnc1-c1ccc(S(=O)(=O)N2CCCC2)cc1,102,101,9,56
O=C(NC1C(=O)NN(c2ccccc2)C1c1ccc(Cl)cc1)c1ccco1 (configuration not stated),103,103,-14,4
CCn1nc(C(=O)OC)c2ccccc2c1=O,96,91,-7,29
CC1CCCCN1c1nnc(NC(=O)NCc2ccccc2)s1 (configuration not stated),103,103,-2,-4
O=C(NC1CCCC1)c1ccc(Nc2nc3ccccc3n3nnnc23)cc1,99,110,-22,7
CSc1nnc(C2CCCN2CC(=O)NC(c2ccccc2)c2ccccc2)n1C (configuration not stated),101,101,6,-6
CCN(CC)C(=O)Cn1cc(/C=C2/C(=O)N(C)c3ccccc32)c2ccccc21,105,105,-114,13
CCOc1ccc(C(=O)C(C)OC(=O)c2cccnc2N2CCCC2)cc1 (configuration not stated),103,93,-4,21

More compounds follow.
canonical_smiles,PV pol inh,PV pol inh intensity,MenB inh,Mtb MbtI inh
COC(=O)/C(C(C)=N)=C(\O)CSc1nnnn1-c1ccc(Cl)cc1,106,105,-15,-2
Cc1nn(C)c(C)c1N1C(=O)c2cccc3c(Br)ccc(c23)C1=O,101,103,9,5
COc1ccc2c(c1)CC/C(=C/c1cccc(O)c1)C2=O,102,97,0,18
CCOc1cc(CO)cc(Cl)c1OCC(=O)Nc1ccccc1OC,103,102,-29,-9
Fc1ccc(NC(=S)N2CCN=C2Nc2ccc(F)cc2)cc1,87*,82*,-28,72*
CCOc1ccccc1NC(=O)CCS(=O)(=O)c1ccc2c(c1)CCN2C(C)=O,104,98,-22,9
C=CCNc1sc(N)c(C#N)c1C(=O)c1ccc(Br)s1,102,163,-33,.
CCCSC1=C(C#N)C(c2cccs2)CC(=O)N1 (configuration not stated),105,100,.,-10
CC1CC(C)(C)NC(=S)N1CC(=O)Nc1ccc(Cl)cc1 (configuration not stated),100,102,-20,4
CCN(CC(=O)Nc1ccccc1C(=O)c1ccccc1)CC(=O)NC1CCS(=O)(=O)C1 (configuration not stated),104,110,1,-2
CC1CC(C)CN(S(=O)(=O)c2ccc(C(=O)NC(C)(C)C)cc2)C1 (configuration not stated),103,108,-6,2
COC(=O)c1cnc(SCc2c(Cl)cccc2Cl)n1C,104,107,-5,2
Cc1[nH]c2ccccc2c1C1=CCN(S(=O)(=O)Cc2ccccc2)CC1,104,100,-17,0
COc1cccc(C2CC(c3cccs3)=NN2C(=O)CSC2=NN3CCCC(=O)N=C3S2)c1OC (configuration not stated),101,104,-26,2
CCn1c(N)c(-c2csc(Nc3ccc(F)c(Cl)c3)n2)c(=O)[nH]c1=O,100,102,2,15
CN(CC(=O)Nc1nc2ccc(Cl)cc2s1)S(=O)(=O)c1ccc2[nH]c(=O)ccc2c1,103,105,-16,7
CCCSc1nc(O)c(CC)c(=O)n1C(C)CC (configuration not stated),104,106,-58,3
Fc1ccc(SCSc2ccccc2)cc1,98,80,-25,.
CCC1(C)Cc2ccccc2/C(=C/C(=O)N2CCCCC2)N1 (configuration not stated),104,89,-59,-16
CCc1ccc(NC(=O)CSc2ncc(S(=O)(=O)c3ccc(C(C)C)cc3)c(N)n2)cc1,103,105,-28,1
CC(C)(C)C(N)Cn1ccnc1 (configuration not stated),95,104,2,.
CCOC(=O)c1nc2ccccc2c(=O)n1-c1ccc(C)cc1C,100,101,.,-10
O=C(NCCc1ccccc1)c1ccc(Cl)cc1,102,102,2,-10
CC(C)c1ccc(C#N)cc1,104,109,10,-9
O=C(OCC1CCCO1)c1ccccc1Br (configuration not stated),101,99,.,-1

Compounds listed so far with fluorine, in the order listed:
canonical_smiles,PV pol inh,PV pol inh intensity,MenB inh,Mtb MbtI inh
CNC(=S)N/N=C/c1c(C(=O)OC)cnn1-c1ccc(F)cc1F,103,104,-25,10
Fc1ccc(NC(=S)N2CCN=C2Nc2ccc(F)cc2)cc1,87*,82*,-28,72*
CCn1c(N)c(-c2csc(Nc3ccc(F)c(Cl)c3)n2)c(=O)[nH]c1=O,100,102,2,15
Fc1ccc(SCSc2ccccc2)cc1,98,80,-25,.

The main list resumes; the three compounds before the break are reprinted first.
canonical_smiles,PV pol inh,PV pol inh intensity,MenB inh,Mtb MbtI inh
O=C(NCCc1ccccc1)c1ccc(Cl)cc1,102,102,2,-10
CC(C)c1ccc(C#N)cc1,104,109,10,-9
O=C(OCC1CCCO1)c1ccccc1Br (configuration not stated),101,99,.,-1
CC1CCCC(C)N1C(=O)COC(=O)c1cc(C(F)(F)F)cc(C(F)(F)F)c1 (configuration not stated),102,100,-18,-1
COc1cc2nc(C3CCC3)n(NC(=O)C(OC(C)=O)c3ccccc3)c(=O)c2cc1OC (configuration not stated),102,104,-24,-1
CCN1C(=O)S/C(=C/c2ccc(N3CCCC3)c(F)c2)C1=O,92,113,-39,-7
CCOC(=O)c1c(NC(=O)CC2NCCNC2=O)sc2c1CCCC2 (configuration not stated),100,103,-2,-8
Brc1ccccc1OCC1CCCN2CCCCC12 (configuration not stated),121,169,-4,.
CCc1nnsc1C(=O)Nc1sc2c(c1C(=O)NCC1CCCO1)CCCC2 (configuration not stated),105,101,-33,-6
O=C(CSc1ncccn1)N1CCN(c2ccccc2)CC1,102,105,3,-2
CS(=O)(=O)C1(S(C)(=O)=O)CCCCC1,103,102,.,-10
CC(C)=CCOc1c2occc2cc2ccc(=O)oc12,100,99,-5,-3
CC1CCN(c2nnc(NC(=O)c3cc(-c4ccc(Br)cc4)on3)s2)CC1,101,105,6,2
Cc1[nH]c(=S)sc1CC(=O)NC1CCCCC1C (configuration not stated),98,98,-2,84*
O=C1c2ccccc2C(=O)N1Cc1ccc(C2Nc3ccccc3-c3cccn32)o1 (configuration not stated),101,103,-4,9
c1ccc(-c2cc(CSc3nc4ccccc4[nH]3)on2)cc1,106,107,-6,-12
CS(=O)(=O)N1CCCC(C(=O)N2CCCCC2)C1 (configuration not stated),102,99,3,3
O=C(c1ccco1)N(Cc1ccccc1)c1nc2c(F)cc(F)cc2s1,103,109,-11,6
COC(=O)C1C(=O)NC(SCC(=O)Nc2cccc(OC)c2)=C(C#N)C1c1ccc(OC)cc1 (configuration not stated),102,101,-7,36
O=C1CCCC(=O)C1Sc1ccc(Cl)cc1,98,94,.,-2
O=C1CC(Sc2ccccc2)C(=O)N1c1ccccc1 (configuration not stated),103,101,2,64*
COc1cc(C(=O)OC2CC3CCC(C2)N3)ccc1O (configuration not stated),104,106,-15,.
O=C1/C(=C/c2ccco2)SC(=S)N1CN1CCN(c2ccccc2)CC1,100,104,-405,33
CC1=CC(C)=NC2=C(c3ccccc3)SC(=C3C(=O)c4ccccc4C3=O)N12,101,97,2,12
C=CCn1c(SCC(=O)NCCc2ccccc2)nc2sc3c(c2c1=O)CCCC3,104,97,-18,5
CC1CCCCC1NC(=O)NC(=O)Cn1cc(Br)ccc1=O (configuration not stated),99,96,-11,-4
O=C(Nc1ccccc1)Nc1ccc2c(c1)OCO2,104,107,9,6
COc1cccc(Cn2c(SCc3ccc(C(=O)NC4CCCC4)cc3)nc3ccncc32)c1,94,79,-11,4
ONC1=NCCCCC1,102,113,17,-12
O=C(O)CC(CC(=O)N1CCN(c2ncccn2)CC1)c1ccccc1 (configuration not stated),102,102,11,11
O=S(=O)(NCCc1ccccn1)C1=Cc2ccccc2CC1,100,99,-6,0
CCn1c(CSC/C=C/c2ccccc2)nc2cc(S(=O)(=O)N3CCOCC3)ccc21,103,104,-40,0
Cc1ccc(-c2nnc(OCc3cccnc3)c3ccccc23)cc1,104,103,-13,15
CC1CCC2(CC1)NC(=O)N(CN1CCCC1)C2=O (configuration not stated),106,107,-34,-6
CCOC(=O)C1C2c3ccccc3O[C@]1(C)N=c1s/c(=C/c3ccc(OC)cc3)c(=O)n12 (some centres not stated),108,110,-9,.
O=C(CC(=O)N1CC2CC(C1)c1cccc(=O)n1C2)c1ccccc1 (configuration not stated),103,102,-24,0
Cc1nn2c(c1-c1ccccc1)NC1=C(C(=O)CCC1)C2c1cccnc1 (configuration not stated),100,99,-30,-3
CCOC(=O)CSc1cc(C)nc(SCC(=O)OCC)n1,106,103,-24,7
Cc1cccc(NC(=O)c2ccccc2C(=O)O)c1,99,106,-2,-3
CCN(Cc1ccccc1)C(=O)CSc1nccc(=O)[nH]1,98,104,19,0
